# High-throughput results as filed in PubChem.
# D2 potentiator: Beta-Arrestin HTS for Positive Allosteric Modulators of the Human D2 Dopamine Receptor: Potentiators; D(2) dopamine receptor (Homo sapiens), P14416; DiscoveRx D2 beta-arrestin cells, luminescence, 90 min; 100% = 57 uM dopamine signal; potentiation, % (test concentration not listed); hit rate 0.23% among 360,000; active = potentiation of 50% or more; inconclusive = 30% to 50%; inactive = 30% or less;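 also: compound concentration not given in the record; tested on top of an EC20 dose of dopamine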
# Target sequence (P14416 whole entry, looked up): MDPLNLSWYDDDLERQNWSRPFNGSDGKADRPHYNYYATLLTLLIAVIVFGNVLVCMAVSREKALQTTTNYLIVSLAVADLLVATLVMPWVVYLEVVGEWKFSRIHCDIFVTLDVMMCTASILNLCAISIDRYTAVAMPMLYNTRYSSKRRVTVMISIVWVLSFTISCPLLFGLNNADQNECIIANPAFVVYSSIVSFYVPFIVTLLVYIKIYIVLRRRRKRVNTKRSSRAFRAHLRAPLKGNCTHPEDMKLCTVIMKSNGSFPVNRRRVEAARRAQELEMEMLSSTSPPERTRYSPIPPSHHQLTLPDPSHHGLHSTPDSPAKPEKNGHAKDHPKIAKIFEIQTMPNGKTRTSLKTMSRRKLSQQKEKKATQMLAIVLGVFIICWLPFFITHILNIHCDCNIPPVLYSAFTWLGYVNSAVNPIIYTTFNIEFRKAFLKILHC
#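 PathHunter D2 cells, attached overnight at 37 deg C, received compound in DMSO plus dopamine at EC20 (50 nM final) for 90 min at 37 deg C. Beta-arrestin recruitment was read as luminescence after 1 h with detection reagent at ambient temperature.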
# CtBP-E1A inh: qHTS Assay for Inhibitors of the CtBP/E1A Interaction; CtBP / adenovirus E1A interaction (AlphaScreen); AlphaScreen GST-E1A/His-CtBP binding, 1536-well; active compounds read low; control for the full effect not named in the record; activity change, % (test concentration not listed); hit rate 0.49% among 340,000; in the data active means activity change below about -65%; inconclusive means about -30% to -65%; inactive means above about -30%; also: % is scaled to controls: 0 for no effect and ±100 for the full control effect
#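 Steps: dispense buffer (Tris pH 8.0, NaCl 300 mM, TCEP 1 mM, BSA, Tween 20); add 5X protein mix (GST-E1A, His-CtBP, 125 nM each); pin 23 nL compound; 2 h at 37 °C, dark; add 5X beads (50 ug/mL); 1 h; read.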
# gsp ag: qHTS for Agonist of gsp, the Etiologic Mutation Responsible for Fibrous Dysplasia/McCune-Albright Syndrome: qHTS | gsp mutant cells, cAMP HTRF, 30 min; control for the full effect not named in the record | Potency, µM (series often up to 76.9 µM), for inactives: at the highest dose activation (cAMP increase), most hits filed as activators | hit rate 0.13% among 340,000 | AID 624287, 2012; active = well fitted activation curve with a large enough effect; inconclusive = small, poorly fitted or top-dose-only effect, or another doubt; inactive = no such curve, though single readings can be large or run the other way; cell line not stated here;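 also: phosphodiesterase inhibitor Ro 20-1724 added with compounds to block cAMP breakdown; potency is read from the fitted curve at half-maximal effect; nearly all actives have a fitted effect of over 60% in size; about a fifth of the inactives were tested at one dose only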
#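 Cells stably selected in G418 were plated at 2000/well, grown 16-24 hr, then given compounds in DMSO with the PDE inhibitor […] (300 uM solution added) for 30 min at 37C; cAMP was read by HTRF.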
# D2 ag: Beta-Arrestin HTS for Positive Allosteric Modulators of the Human D2 Dopamine Receptor: Agonists; DiscoveRx PathHunter D2 beta-arrestin, luminescence, 90 min; 100% = 57 uM dopamine signal; D(2) dopamine receptor (Homo sapiens), P14416; hit rate 0.084% among 360,000; activation, % (no concentration beside the values); AID 624465, 2012; in the data active = activation above about 40%; inconclusive = about 15% to 40%; inactive = below about 15%; also: compound concentration not given in the record; the text of the record calls up to 30% inactive
#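 DiscoveRx PathHunter D2 beta-arrestin cells (2,100/well) attached overnight, then compound-stimulated 90 min at 37 C in HBSS/10 mM HEPES/0.1% Tween-20 buffer; beta-galactosidase complementation read by luminescence after 1 h at ambient temperature. Dopamine 57 uM final (EC100) as control.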
# gsp antagonist: qHTS for Antagonists of gsp, the Etiologic Mutation Responsible for Fibrous Dysplasia/McCune-Albright Syndrome: qHTS | hit rate 0.4% among 340,000 | Potency, µM (highest dose often 76.9 µM), inactives show at the highest dose activity change, negative = inhibition, most hits filed as inhibitors | AID 624288, 2012 | gsp-mutant cells, cAMP HTRF, 30 min; control for the full effect not named in the record; active = falling curve of any shape with a large fitted effect; inconclusive = falling curve, mostly with a smaller effect; inactive = flat or rising curve; cell line not stated here;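 also: intracellular cAMP measured with PDE inhibitor Ro 20-1724 present during compound exposure; potency is read from the fitted curve at half-maximal effect; % is scaled to controls: 0 for no effect and ±100 for the full control effect; nearly all actives have a fitted effect of over 65% in size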
#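 G418-selected cells were plated in DMEM/10% FBS for 16-24 h at 37C, then treated with compounds plus the PDE inhibitor […] (300 uM solution added) for 30 min at 37C. Intracellular cAMP was measured by HTRF after 30 min lysis at room temperature.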
# Six1-Eya2 inh: qHTS Assay for Inhibitors of the Six1/Eya2 Interaction; Homeobox protein SIX1 (Homo sapiens) + Protein phosphatase EYA2 (Homo sapiens), …; AlphaScreen GST-Six1/His-Eya2 binding, biochemical; active compounds read low; control for the full effect not named in the record; activity change, % (test concentration not listed); hit rate 0.56% among 360,000; in the data active = activity change below about -65%; inconclusive = about -30% to -65%; inactive = above about -30%; also: % is scaled to controls: 0 for no effect and ±100 for the full control effect
#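 AlphaScreen with GST-Six1 and His-Eya2 (5X mix: 250 nM and 500 nM), glutathione donor and nickel acceptor beads; buffer 50 mM Tris pH 8.0, 300 mM NaCl, 1 mM TCEP; 1 h at 37 C in the dark.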
# * = called active by the depositor; ? = inconclusive; . = not tested or not shown; [ ] = another dose, or the depositor's remark.
compound	gsp antagonist	D2 ag	CtBP-E1A inh	D2 potentiator	gsp ag	Six1-Eya2 inh
CCCNC(=O)c1sc2c(c1C(=O)Nc1ccccn1)CCCC2	-25%	0.4	-15	1	-4%[15.4 µM]	-10
CCc1cc2ccc(C)cc2nc1SCC(=O)Nc1cc(OC)c(OC)cc1C(=O)O	-25%	-0.1	1	-2	-13%	16
CCCCCCOc1ccc(N2C(=O)CC(N3CCN(C(=O)c4ccco4)CC3)C2=O)cc1 (stereo not drawn)	3%	-1.8	-1	1	-1%	-3
CC(C)[C@H](NC(=O)N1CCn2c1nc1ccccc12)C(=O)N[C@H](C(=O)O)c1ccccc1	-1%	-3.6	2	-25	.	3
CCN(CC)S(=O)(=O)c1ccc(S(=O)(=O)NCC2CCCO2)cc1 (stereo not drawn)	-2%	-3.3	-3	-5	-14%	1
CC1Cc2ccccc2N1C(=O)CN(C)CC(=O)Nc1ccc(F)cc1 (stereo not drawn)	8%	-4.7	-2	-25	-3%	-3
CCCCNC(=O)NC(C(=O)OC)C12CC3CC(CC(C3)C1)C2 (stereo not drawn)	-8%	0.7	12	-1	-9%	11
c1ccc2oc(SCc3cn4ccccc4n3)nc2c1	1%	-0.3	6	-4	-21%	0
NC(=O)c1ccccc1NC(=O)C1CCCO1 (stereo not drawn)	6%	7.3	1	1	-21%	5
Cc1ccc(CN2CCN(C/C=C/c3ccc(F)cc3)CC2CCO)o1 (stereo not drawn)	7%	-1.5	.	-16	7%	0
Nc1nc(SCC(=O)Nc2ccccc2)nc2nc3c(cc12)CCCC3	-17%	-3.6	-27	-9	-6%[15.4 µM]	?
COc1ccc(OC)c(/C(O)=C/C(=O)C(=O)Nc2ccccc2OC)c1	-5%	0.6	0	-1	-14%	0
CN(C(=S)NC(=O)c1ccccc1)c1c(N)n(Cc2ccccc2)c(=O)[nH]c1=O	-19%	-5.5	5	-7	-7%	8
COc1ccc(CCNC(=O)CSc2nc(N)c3c(C)c(C)oc3n2)cc1OC	-7%	-1.9	-2	-7	10%	-8
O=C(COC(=O)CCc1ccc(S(=O)(=O)N2CCOCC2)cc1)NCc1ccccc1	-3%	2.8	6	-3	?	7
CCc1cc(C(=O)Nc2cc(S(=O)(=O)N3CCCCC3)ccc2N2CCN(C)CC2)sc1C	.	-7.4	-12	-13	-34%[inhibitor]	-25
CN(CC(=O)Nc1ccc(F)cc1)C(=O)COC(=O)c1ccccc1	9%	2.4	6	-4	-2%[15.4 µM]	3
CCOC(=O)CC(NC(=O)c1ccccc1F)c1ccc(C)cc1 (stereo not drawn)	3%	-4.1	11	6	-21%[15.4 µM]	0
O=C(Nc1cccc2ccccc12)N1CCN(Cc2ccc3c(c2)OCO3)CC1	-3%	-3.1	-1	-18	?	-5
Cc1c(C(O)CN2CCC(C(N)=O)CC2)c2ccccc2n1C (stereo not drawn)	1%	-14	-11	-1	-57%[inhibitor]	-2
O=C(O)CCc1ccc(S(=O)(=O)Nc2cc(C(F)(F)F)ccc2N2CCCC2)cc1	-11%	0.0	-1	-30	8%	1
CCOc1ccc(Cl)cc1-c1cc(C(=O)NC2CCCCC2)[nH]n1	.	1.9	-8	-13	.	3
Cc1ccc(-c2nc3ccccc3s2)cc1NC(=O)c1cc(-n2cnnc2)ccc1Cl	0%	-0.9	0	-10	3%	-1
COc1ccc(NC(=O)N(C)[C@H]2C[C@H]3c4[nH]c5ccc(-c6ccc(OC)cc6)cc5c4CCN3C[C@H]2[C@H](C)O)cc1	.	-6.0	?	-5	-41%[inhibitor]	-28
CC1Cc2ccccc2N1S(=O)(=O)c1cccc(C(=O)Nc2cccnc2)c1 (stereo not drawn)	-17%	2.1	-2	-4	4%[15.4 µM]	4
CC(C)(C)NC(=O)C1CCN(C(=O)c2ccco2)CC1	22%	1.5	2	-2	?	1
Cn1c(CSCc2ccc(Cl)c(Cl)c2)nnc1SCC(=O)Nc1nccs1	-8%	?	0	70*	4%	5
O=C(CCN1C(=O)C2C3C=CC(C3)C2C1=O)NC1CCCCC1 (stereo not drawn)	8%	-2.4	-17	-27	22%	-10
Nc1ccnn1Cc1ccncc1	8%	-3.3	.	-8	-15%	3
COC(=O)c1cccc(NC2CC(=O)N(c3ccc(OC)c(OC)c3)C2=O)c1 (stereo not drawn)	-5%	-1.6	-6	-5	?	-3
C=CCOC(=O)C1=C[C@H](C2CCCCC2)[C@@H](CCCO)[C@H](OCC)O1	-17%	4.4	4	11	.	3
CC1(C)CC(=O)C(C2=NC(C)(C)Cc3ccccc32)=C(O)C1	10%	-4.6	-10	12	-43%[inhibitor]	2

# Continued; it opens with the six that closed the last part.
compound	gsp antagonist	D2 ag	CtBP-E1A inh	D2 potentiator	gsp ag	Six1-Eya2 inh
Cn1c(CSCc2ccc(Cl)c(Cl)c2)nnc1SCC(=O)Nc1nccs1	-8%	?	0	70*	4%	5
O=C(CCN1C(=O)C2C3C=CC(C3)C2C1=O)NC1CCCCC1 (stereo not drawn)	8%	-2.4	-17	-27	22%	-10
Nc1ccnn1Cc1ccncc1	8%	-3.3	.	-8	-15%	3
COC(=O)c1cccc(NC2CC(=O)N(c3ccc(OC)c(OC)c3)C2=O)c1 (stereo not drawn)	-5%	-1.6	-6	-5	?	-3
C=CCOC(=O)C1=C[C@H](C2CCCCC2)[C@@H](CCCO)[C@H](OCC)O1	-17%	4.4	4	11	.	3
CC1(C)CC(=O)C(C2=NC(C)(C)Cc3ccccc32)=C(O)C1	10%	-4.6	-10	12	-43%[inhibitor]	2
COc1ccc(NC(=S)N2CCN(c3ccccn3)CC2)cc1OC	4%	2.5	7	0	-12%	0
CCCn1c(SCC(=O)Nc2cccc(C)n2)nnc1C(C)C	4%	-3.6	-1	-6	-9%[15.4 µM]	-2
Cn1c(-c2ccccc2)nc2cnccc21	11%	-4.5	1	-1	17%	3
COCc1ccc(C(=O)N2CCCC(N(C)CCc3ccc(OC)c(OC)c3)C2)s1 (stereo not drawn)	-4%	-0.3	3	-24	23%[15.4 µM]	2
CC(C)CCNC(=O)CCn1nc(-c2ccc(Cl)cc2)ccc1=O	1%	2.3	8	-6	21%	1
CCCCOc1cccc(C(=O)Nc2ccc(S(=O)(=O)Nc3cc(C)on3)cc2)c1	-20%	6.6	1	1	-20%	-4
CN(c1ccc(-c2csc(NC(=O)CCCc3nc4ccccc4c(=O)[nH]3)n2)cc1)S(C)(=O)=O	.	7.3	-4	7	-3%	-6
O=C(CCCc1nc2ccccc2s1)N1CCN(S(=O)(=O)c2cccs2)CC1	?	-2.4	-1	-17	11%	0
COc1ccccc1-c1nnc2sc(COc3ccc(Cl)cc3Cl)nn12	1%	-2.4	-6	-10	-39%	-8
O=C(c1cccc(Br)c1)c1conc1C(=O)c1ccco1	-5%	0.3	.	-8	3%	4
COC(=O)c1ccc(CSc2nc3ccccc3s2)o1	-3%	-0.6	34	5	-13%	14
O=C(CSc1nnnn1-c1ccccc1)Nc1nsc(-c2ccccc2)n1	-1%	-0.2	0	-4	-41%[inhibitor]	-1
COc1ccc(S(=O)(=O)N(C)c2ccc(C(=O)NCCC(C)C)cc2)cc1	-2%	0.1	0	-3	0%	-1
C/C(=N\OC(=O)c1ccc(Cl)c(Cl)c1)c1sc(C)nc1C	-1%	0.8	-1	-9	-2%	-7
COc1ccccc1C(=O)N/C(=C\c1ccc(Br)cc1)C(=O)N1CCCC1	18%	-5.8	5	-13	-7%[15.4 µM]	10
CC(=O)c1ccc(S(=O)(=O)Nc2ccc(C(=O)N(C)CC(=O)Nc3cccc(C)c3C)cc2)cc1	-4%	4.9	0	-3	-55%[inhibitor]	-1
CCN1C(=O)C(O)(CC(=O)c2ccc3c(c2)OCCO3)c2ccccc21 (stereo not drawn)	2%	-2.9	1	-4	-21%	0
COc1cc(CN(C)Cc2nc3cc(C(F)(F)F)ccc3c(=O)[nH]2)ccc1OC(F)F	-9%	6.5	.	-12	19%	1
CCOC(=O)C1=C(CN2CCN(C(=O)OCC)CC2)NC(=O)NC1c1ccc2c(c1)OCO2 (stereo not drawn)	-9%	-1.4	5	0	0%[15.4 µM]	6
Nc1nc(NCCOCCO)nc(NCC2CCCO2)c1[N+](=O)[O-] (stereo not drawn)	5%	-4.8	-10	-7	9%	3
COc1ccc(-c2cc(C(F)(F)F)nc(N3CCOCC3)n2)cc1OC	0%	0.9	11	-2	10%	12
CC(=O)NC(CC(=O)c1ccc([N+](=O)[O-])cc1)C(Cl)(Cl)Cl (stereo not drawn)	8%	0.0	1	27	-32%[inhibitor]	1
COc1cccc(OC)c1OCCNCC1COc2ccccc2O1 (stereo not drawn)	6%	0.9	0	-23	.	-4
CCCc1nnc(SCC(=O)N2CCCC2)n1CC1CCCO1 (stereo not drawn)	1%	-2.0	4	-2	-5%	1
O=C(CC1Nc2ccccc2NC1=O)NCc1cccnc1 (stereo not drawn)	0%	-0.1	-8	-7	4%	-7
CCN(C(=O)CSc1nc2ccc(O)cc2c(=O)n1-c1ccc(OC)c(OC)c1)C1CCS(=O)(=O)C1 (stereo not drawn)	2%	-0.9	-6	-70	35%[15.4 µM]	1
COc1ccc(CCNS(=O)(=O)c2ccc3c(c2)CCN3C(=O)CCC(=O)O)cc1OC	3%	-0.4	-5	-3	12%	-6
CCOC(=O)C1=CCC(c2cccs2)N(S(=O)(=O)c2ccc(C)cc2)C1 (stereo not drawn)	.	-5.1	12	-2	.	18
CCN(CC)S(=O)(=O)c1ccc(C(=O)NCC(c2ccc(OC)cc2)N2CCOCC2)cc1 (stereo not drawn)	-1%	-1.5	.	-44	-22%	8

# Rows are unselected (roughly 1.4% active in at least one column).
